AF4-AF9 inh: inhibitors of human MLL-AF4/AF9 interaction; P42568; AlphaScreen, biotin-AF4 peptide binding to FLAG-AF9; inhibition, % at 10 µM; 0.47% of 350,000 active; AID 651704;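 active = every replicate reaching a set inhibition limit, whatever the replicate mean, cut at about 25% in these data; inconclusive = mean inhibition reaches that limit but some replicates miss it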;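 note: 0% = plate neutral control median and 100% = total signal loss; the record names both 10 and 1 µM as test concentration; the first replicate is given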
Target sequence (P42568 whole entry, looked up): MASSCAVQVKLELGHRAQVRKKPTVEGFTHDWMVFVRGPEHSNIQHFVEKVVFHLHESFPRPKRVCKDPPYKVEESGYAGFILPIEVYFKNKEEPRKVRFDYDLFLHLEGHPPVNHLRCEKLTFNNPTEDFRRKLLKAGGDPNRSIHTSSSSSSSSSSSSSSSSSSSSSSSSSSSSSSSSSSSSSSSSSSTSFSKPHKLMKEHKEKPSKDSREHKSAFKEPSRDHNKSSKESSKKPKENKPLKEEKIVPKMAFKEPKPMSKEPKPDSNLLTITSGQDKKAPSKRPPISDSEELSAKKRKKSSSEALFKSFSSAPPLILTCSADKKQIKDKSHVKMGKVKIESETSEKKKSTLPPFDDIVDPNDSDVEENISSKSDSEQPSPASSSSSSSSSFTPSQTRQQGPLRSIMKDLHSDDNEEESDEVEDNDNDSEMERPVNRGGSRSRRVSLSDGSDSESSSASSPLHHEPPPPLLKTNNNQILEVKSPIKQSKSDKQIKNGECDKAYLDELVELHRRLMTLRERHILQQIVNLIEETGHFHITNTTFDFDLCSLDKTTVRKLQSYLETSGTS
FGF22 binding: shifts melting point of recombinant human FGF22 | AID 651658 | 1.5% of 340,000 active | recombinant FGF22 thermal shift, SYPRO orange fluorescence; percent of sucrose octasulfate shift, DMSO zero | Q9HCT0 | calls only at 9.99 µM;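 active = melting point raised past a set limit in the mean and every replicate; inconclusive = no clear call; three in four hits are not shown here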
Target sequence (Q9HCT0 whole entry, looked up): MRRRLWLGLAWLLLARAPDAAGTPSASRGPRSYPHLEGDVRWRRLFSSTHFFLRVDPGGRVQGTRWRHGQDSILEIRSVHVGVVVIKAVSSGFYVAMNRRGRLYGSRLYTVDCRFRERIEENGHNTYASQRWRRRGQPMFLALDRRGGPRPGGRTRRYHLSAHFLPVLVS
Calb FLC: affects C. albicans growth with fluconazole; C. albicans CaCi-2 (fluconazole-resistant clinical isolate) + fluconazole, Alamar Blue growth, 48 h; growth inhibition, % (no concentration beside the values); 0.57% of 300,000 active; AID 1979;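 active = most replicates above 75%; inconclusive = exactly half above 75%; inactive = most below 75%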;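 note: all wells also contain fluconazole at 8 µg/ml as a sub-toxic cotreatment; 0% = median of DMSO wells and 100% = median of geldanamycin control wells; wells of about 8 µL received 7.5 nL stock; the first replicate is given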
ALR H2O2 inh: human ALR oxidase inhibition via reduced H2O2 | P55789 | purified ALR, DTT oxidation, H2O2 HRP-luminol luminescence | inhibition, % (concentration not given with the values) | 3.8% of 290,000 active | AID 485317;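 active = mean and each replicate at 75% or more; inconclusive = only one of the two met; inactive = neither met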;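 note: stock transfer was 7.5 nL into about 7.5 µL; 0% = neutral wells and 100% = wells with inactivated enzyme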
Target sequence (P55789 whole entry, looked up): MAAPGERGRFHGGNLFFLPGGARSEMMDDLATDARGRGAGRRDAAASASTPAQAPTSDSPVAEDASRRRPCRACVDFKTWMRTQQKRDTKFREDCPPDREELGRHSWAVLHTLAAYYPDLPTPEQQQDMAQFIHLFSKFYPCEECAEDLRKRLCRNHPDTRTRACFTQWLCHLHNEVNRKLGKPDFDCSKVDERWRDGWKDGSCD
Ecoli rRNA inh: selective bacterial rRNA inhibition in E. coli; E. coli WT GFP vs humanized-ribosome RFP mutants, fluorescence, 24 h; stronger effect = lower value; DMSO median 0, no signal -100; GFP signal change (wild-type ribosome), % (no concentration beside the values); 1.6% of 350,000 active; AID 720706;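 active = significant combined selectivity score with lowered wild-type GFP, culture density cut under 30%, mutant RFP and density less affected; inactive = any of these conditions unmet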; note: one replicate is shown; some compounds called inactive have numbers as strong as hits
Beta apoptosis: blocks beta cell apoptosis | INS-1E cytokine-induced death, ATP luminescence, 48 h; percent of positive-control rescue, neutral wells zero | protection from apoptosis, % (concentration not given with the values) | 0.8% of 300,000 active | AID 435005;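 active = all replicates at 75% or more, or half of them and the mean; inconclusive = half reach 75% but not the mean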;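 note: 0% = cytokine-treated negative control wells and 100% = positive control rescue; higher means more ATP so stronger rescue from cytokine killing; wells of about 40 µL received 100 nL stock; the first replicate is given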
T cruzi repl: blocks replication of Trypanosoma cruzi. T. cruzi beta-gal in NIH3T3, luminescence, 90 h. inhibition, % (concentration not given with the values). 1.4% of 300,000 active. AID 1885;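 active = mean inhibition across valid replicates above about 55%, limit read from the data; inconclusive = mean below that limit but half or more replicates reach it; inactive = mean below it, under half of replicates reach it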;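 note: signal also drops with host cell toxicity which is not excluded here; 0% = plate median of DMSO wells and 100% = zero luminescence signal; higher percent means less beta-gal luminescence so fewer parasites; stock transfer was 50 nL into about 50 µL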
RanGTP-Imp inh: disruptors of Ran-importin-beta complex formation – biochemical, FRET, CFP-Ran, YFP-importin-beta, homogeneous, primary screen; inhibition, % (test concentration not listed); 1.1% of 300,000 active; AID 2216; cell-free CFP-Ran/YFP-importin-beta FRET ratio;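 active = most replicates above 15%; inconclusive = exactly half above 15%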;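 note: 0% = DMSO wells and 100% = Ran loaded with GDP instead of GTP; wells of about 40 µL received 100 nL stock; the first replicate is given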
Ecoli rRNA inh OD600: further read-out of Ecoli rRNA inh, marked with its call; OD600 change, %; measured here: OD600 growth;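 optical density of the mix in the first replicate; 0 = DMSO median and -100 = no signal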
Ecoli rRNA inh RFP: second read-out of Ecoli rRNA inh, no call of its own (marks repeat the call); RFP signal change, %; measured here: RFP humanized mutant strains;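 first replicate; 0 = DMSO median and -100 = no signal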
Active calls of the source: *; i = inactive; ? = inconclusive; / = not tested or not shown; & = joins results of further samples. This is a subset. The share of hits here may be higher or lower than overall.

Sequence of screens: AF4-AF9 inh	FGF22 binding	Calb FLC	ALR H2O2 inh	Ecoli rRNA inh	Ecoli rRNA inh OD600	Ecoli rRNA inh RFP	Beta apoptosis	T cruzi repl	RanGTP-Imp inh
1) CCOc1cc(-c2c(C#N)c(N)nc3c2CCc2ccccc2-3)ccc1O
  /	/	37	33	/	/	/	7	21	0.0
2) COc1cc2c(cc1OC)C(c1cccs1)N(C(=O)C(C)C)CC2 (stereo not drawn)
  /	/	7	?	/	/	/	-4	-1	-3.6
3) Cc1cccc(CSc2nc3c(cc2C#N)CCC3)c1
  /	/	7	-1	/	/	/	-1	12	-3.1
4) COc1ccc(CCN(C)C(=O)C2CCN(Cc3cccc(OC)c3OC)CC2)cc1OC
  -0.9	i	5	-27	2	-8	-0.4	-4	-2	3.3
5) CCOC(=O)C1CCCN(C(=O)/C=C/c2cccc([N+](=O)[O-])c2)C1 (stereo not drawn)
  /	/	12	20	/	/	/	-4	-8	2.9
6) Cc1ccc(-c2nc3ccccc3[nH]2)cc1N
  -2.4	i	-19	0	-2	2	1.4	19	-5	9.6
7) CCOC(=O)COc1cc2c3c(c(=O)oc2cc1C)CCCC3
  /	/	-3	-4	/	/	/	-2	1	2.1
8) COc1ccc(NC(=O)C2CCC(C(C)(C)C)CC2)cc1S(=O)(=O)N1CCCCC1 (stereo not drawn)
  /	/	6	/	/	/	/	-3	23	1.4
9) CCOC(=O)c1c(NC(=O)CSc2nnnn2C)sc(C(=O)N(C)C)c1C
  -0.4	i	9	-14	9	8	-0.9	2	-20	3.5
10) Cc1ccc(OCc2cc(C(=O)N3CCC(Oc4cccnc4)CC3)no2)cc1C
  -4.2	i	12	-4	-21	-26	-7.5	-4	5	-0.4
11) CC1=NN(c2ccc(C(=O)O)cc2)C(=O)CC1
  -0.9	i	-2	0	9	14	3.0	-3	-4	-2.1
12) Cc1nn(Cc2ccc(Cl)cc2Cl)c(C)c1NC(=O)CCl
  /	/	0	90*	/	/	/	-9	-10	-0.9
13) CC[C@H](C)[C@H](NC(N)=O)C(=O)Nc1ccc(OC)c(Cl)c1
  -6.1	i	4	0	3	4	-2.4	-3	-2	-2.8
14) Cc1cccc(-n2cc(CNCCc3nc(C)cc(C)n3)c(-c3cccc(F)c3)n2)c1
  8.2	i	-3	-1	-33	-39	8.2	10	36	-3.4
15) COc1ccccc1CNC(=O)CCNS(=O)(=O)c1ccc2[nH]c(=O)oc2c1
  -3.7	i	-16	-2	-22	-35	-7.9	-5	13	?
16) Cc1ccc(NC(=O)C2=CCN(S(=O)(=O)c3ccc(F)cc3)CC2)c(C)c1
  -3.9	i	-1	-117	1	-12	15	-6	1	-3.5
17) COc1ccc(S(=O)(=O)Cc2ccc(C(=O)NCCCN(C)c3ccccc3)o2)cc1
  /	/	6	99*	/	/	/	0	-6	-2.9
18) O=C1OCCC1Sc1nnc(-c2ccc(Cl)cc2)n1Cc1ccccc1 (stereo not drawn)
  /	/	11	-3	/	/	/	-6	-9	2.4
19) O=C(O)CCC(=O)Nc1ccc(C(=O)OC2CCCCC2)cc1
  -9.2	/	16	7	7	4	3.0	-11	-1	-0.7
20) CCOCCCNS(=O)(=O)Cc1ccccc1
  /	/	-16	-7	/	/	/	-1	-4	-1.3
21) CCOC(CCn1c(SCC(=O)Nc2cc(C)on2)nc2ccccc2c1=O)OCC
  -0.6	/	17	-7	4	2	8.8	0	13	3.4
22) COc1ccccc1CNN
  1.5	i	-8	-23	2	4	1.9	-8	-5	0.5
23) Cc1cc(C(C)(C)C)oc1C(=O)N(CC(=O)NC1CCCC1)c1cccc(C(F)(F)F)c1
  /	/	14	2	/	/	/	6	43	1.2
24) COc1ccc(OC)c(C(=O)COC(=O)c2cccnc2Cl)c1
  0.2	i	-3	1	1	-6	-1.1	-7	-14	2.3
25) Cc1cc2cc(CCNC(=O)CCc3ccccc3)c(=O)[nH]c2cc1C
  -1.4	i	15	-2	5	-5	2.8	1	6	5.3
26) COc1ccc(S(=O)(=O)Nc2ccc(Oc3ncccn3)c(Cl)c2)cc1
  /	/	6	4	/	/	/	/	-7	-1.1
27) Cc1cc(C(=O)Nc2cccc3c2O[C@@H](CN(C)S(=O)(=O)c2ccccc2)[C@H](C)CN([C@@H](C)CO)C3=O)n(C)n1
  -1.1	i	/	2	0&10	6&20	-3.0&2.0	1	/	/
28) COc1cc(-c2nc(-c3ccccc3)c(-c3ccc(F)cc3)[nH]2)cc2c1OCO2
  /	/	9	/	/	/	/	12	47	-2.3
29) COc1cc(OC)cc(C(=O)Nc2nnc(SCC(=O)NCc3ccco3)s2)c1
  0.8	i	1	13	-3	-40	3.1	4	-1	-1.0
30) Cc1ccc(N2CCN(S(=O)(=O)c3c(C)noc3C)CC2C)cc1 (stereo not drawn)
  4.6	i	0	49	-19	-20	0.9	/	12	-0.4
31) CSc1ccc(CCNS(=O)(=O)c2csc(C(N)=O)c2)cc1
  -1.6	i	-6	-3	-5	-6	0.6	0	-9	2.9
32) Cc1cccc(C)c1NC(=O)CSc1nc(-c2ccco2)cc(C(F)(F)F)n1
  -5.5	i	7	/	13	4	14	5	-2	-1.1
33) CCCCN=C(N)/C(C(=O)OCC)=C(\O)c1ccc(OC)cc1
  /	/	2	-8	/	/	/	-1	7	1.7
34) CCOc1c(C=C(C#N)C#N)c2ccccc2n1CC
  8.8	i	5	99*	5	12	16	-4	-9	7.3
35) Cc1cccc(/C=N\NC(=O)c2sccc2-n2cccc2)c1
  /	/	14	5	/	/	/	1	-13	1.8
36) COc1ccc(NC(=O)N(C)C[C@H]2Oc3c(NS(=O)(=O)c4ccc(OC)cc4)cccc3C(=O)N([C@H](C)CO)C[C@@H]2C)cc1
  -2.1	i	/	-7	-1&-10	-1&-1	-1.6&3.5	1	/	/
37) CCc1cc([N+](=O)[O-])cc(CC)c1N
  /	/	-5	/	/	/	/	-2	-13	2.3
38) CCCCN(C)CCn1c(=S)[nH]c2cc(OCC)c(OCC)cc2c1=O
  0.7	i	6	28	16	5	0.3	-3	16	-1.8
39) CCC(=O)NC(Cc1ccccc1)c1nc2ccccc2[nH]1 (stereo not drawn)
  2.1	i	1	1	9	0	-0.1	/	1	2.3
40) COC(=O)C1=C(C)Nc2sc(C(N)=O)c(N)c2C1c1ccncc1 (stereo not drawn)
  4.0	i	-2	-2	6	-6	1.0	1	-3	2.3
41) O=C(/C=C/c1ccccc1)N(Cc1cccs1)C1CCS(=O)(=O)C1 (stereo not drawn)
  /	i	5	-7	-13	-9	-1.8	0	22	-2.6
42) COc1ccc(C(=O)Nc2ccccc2)cc1S(=O)(=O)NCc1ccco1
  2.4	i	9	-2	3	3	-2.5	-8	-30	-0.7
43) O=C(Nc1ccc(Cl)cc1)C(c1ccccc1)N1CCOCC1 (stereo not drawn)
  0.8	i	-2	4	/	/	/	-2	-21	-0.3
44) COC(=O)C1=C(C)OC(N)=C(C#N)C1c1cccnc1 (stereo not drawn)
  /	/	-6	8	/	/	/	-7	-5	6.2
45) Cc1cc(=O)oc2c1c(C)nn2-c1ccc(Cl)cc1
  -1.1	i	-6	0	6	3	3.6	0	0	-1.5
46) COc1cccc(C(=O)Nc2ccc3c(c2)C(=O)N(CC2CCCO2)C3=O)c1 (stereo not drawn)
  -2.6	i	7	-11	-6	-2	-1.5	-3	-18	-3.7
47) Cc1cc(C)n2ncc(C(=O)NC3CCCCC3)c2n1
  -1.2	i	1	-2	2	-4	1.9	0	-20	2.9
48) CC(=O)Nc1cccc(NC(=O)CCNC(=O)c2ccccc2)c1
  -2.3	i	-3	2	10	7	-1.9	1	-14	?
49) CCOC(=O)C1(CCCc2ccccc2)CCN(C(=O)CCc2cnn(C)c2)CC1
  /	/	-14	/	/	/	/	4	15	-1.5
50) Cc1nn(-c2ccccc2)c(C)c1C(=O)OCc1ccc(C#N)cc1
  -3.2	i	19	/	-10	-18	2.3	/	9	1.9
51) Cc1ccc(CONC(=O)c2ccc(OC(F)F)cc2)cc1
  -2.5	i	3	11	-3	6	0.2	-10	11	-2.2
52) Cc1noc(C)c1NC(=O)N(C)C[C@H]1Oc2ccc(NC(=O)NC(C)C)cc2C(=O)N([C@H](C)CO)C[C@@H]1C
  1.0&-3.7	i	/	3	4&0	2&6	-2.1&-5.4	-15	/	/
53) COc1ccc(NC(=O)c2cccc(-n3cnnn3)c2)cc1
  /	/	11	-4	/	/	/	2	-2	0.2
54) COc1ccc(C(=O)NCCN2CCCC2)cc1[N+](=O)[O-]
  3.1	i	10	-12	-4	0	-3.8	-11	-3	?
55) COCCOC(=O)C1=C(C)OC(N)=C(C#N)C1c1cc2cccc(C)c2nc1Cl (stereo not drawn)
  3.8	i	26	4	-14	-14	0.6	0	4	-2.8
56) CCOc1ccc(Br)cc1S(=O)(=O)NCc1ccncc1
  -10	i	1	0	3	6	0.3	1	-39	-2.6
57) O=C(Nc1ccc2c(c1)OCO2)N1CCN(c2ncc(C(F)(F)F)cc2Cl)CC1
  /	/	-5	4	/	/	/	0	18	3.4
58) Cc1ccc(NC(=O)CN2C(=O)S/C(=C\c3ccc(C(=O)O)cc3)C2=O)cc1
  -0.6	i	-4	/	3	-4	4.4	-2	-7	3.6
59) CCN(CC(=O)Nc1c(F)cccc1F)C(=O)CCSc1ccc(C)cc1
  -5.4	i	-3	2	-1	-4	-2.6	9	-2	/
60) CC1(C)CC(NC(=O)C(c2ccccc2)c2ccccc2)CC(C)(C)N1
  0.3	i	-10	-4	-7	-17	0.7	-4	-7	3.0
61) O=C(CC(C(=O)O)c1ccc(Cl)cc1)c1ccccc1 (stereo not drawn)
  -4.2	i	-10	-8	2	-4	-1.4	-3	-6	-1.7

Assay outcomes from PubChem BioAssay.
